Assay outcomes deposited in PubChem by ICCB-Longwood Screening Facility, Harvard Medical School.
MbtI inh: blocks the Mycobacterium tuberculosis siderophore enzyme MbtI | P9WFX0 | purified MbtI enzyme, fluorescence intensity read-out | inhibition, %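 (about 17 µg/mL by stock and volumes)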 | 0.89% of 100,000 active | AID 493033;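 active = above 50% in both replicates, above 80% if mildly self-fluorescent; inactive = the rest, strongly fluorescent compounds included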;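 note: 0% = mean of negative and 100% = mean of positive controls; one replicate is shown; some compounds called inactive have numbers as strong as hits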
Target sequence (P9WFX0 whole entry, looked up): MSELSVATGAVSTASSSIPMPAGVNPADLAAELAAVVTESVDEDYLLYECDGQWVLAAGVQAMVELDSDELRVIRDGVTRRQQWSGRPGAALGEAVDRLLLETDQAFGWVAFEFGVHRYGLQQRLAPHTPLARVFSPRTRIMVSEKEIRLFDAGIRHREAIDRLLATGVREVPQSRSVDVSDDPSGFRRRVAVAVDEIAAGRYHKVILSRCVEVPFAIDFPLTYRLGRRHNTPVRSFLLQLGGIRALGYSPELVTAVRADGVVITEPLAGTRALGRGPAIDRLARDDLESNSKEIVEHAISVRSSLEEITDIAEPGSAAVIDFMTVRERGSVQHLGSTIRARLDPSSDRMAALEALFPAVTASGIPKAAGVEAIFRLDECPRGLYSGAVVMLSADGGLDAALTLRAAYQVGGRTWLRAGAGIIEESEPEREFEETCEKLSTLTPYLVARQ
PV pol inh: poliovirus RNA polymerase inhibition | % elongation, % (compound at 16.7 µg/mL) | AID 588519 | P03300 | poliovirus polymerase elongation, fluorescence polarization; hits give low values | 0.66% of 150,000 active; in the data active = % elongation below about 90%; note: some results filed as inactive read as strong as hits
Target sequence (P03300 1749-2209 limits assumed): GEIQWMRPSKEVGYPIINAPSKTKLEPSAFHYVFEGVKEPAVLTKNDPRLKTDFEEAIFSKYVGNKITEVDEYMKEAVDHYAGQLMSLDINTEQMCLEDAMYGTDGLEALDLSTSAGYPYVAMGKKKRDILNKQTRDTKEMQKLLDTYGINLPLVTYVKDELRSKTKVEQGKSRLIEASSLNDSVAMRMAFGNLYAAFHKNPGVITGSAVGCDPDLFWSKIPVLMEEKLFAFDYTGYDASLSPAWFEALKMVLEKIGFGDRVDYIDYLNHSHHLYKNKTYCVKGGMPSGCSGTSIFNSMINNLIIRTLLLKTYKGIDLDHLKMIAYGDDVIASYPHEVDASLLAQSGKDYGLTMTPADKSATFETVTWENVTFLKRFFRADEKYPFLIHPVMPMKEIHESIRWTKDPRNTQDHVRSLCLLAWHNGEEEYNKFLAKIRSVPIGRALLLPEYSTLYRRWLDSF
MenB inh: Mtb MenB enzyme inhibition | P9WNP5 | MenB enzyme assay, absorbance read-out; some hits fall short of the stated cut | inhibition, %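 (about 12 µg/mL by stock and volumes)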 | 0.43% of 100,000 active | AID 540299;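 active = mean of two replicates above 30%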;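 note: 0% = no compound and 100% = wells with inactive enzyme; the first replicate is given; strong numbers were not always called active; inactives centre near -10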
PV pol inh intensity: recorded beside PV pol inh, whose call it bears; % elongation; measured here: total intensity read-out; formula for this scale not given here;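 total fluorescence in place of polarization; lower means less elongation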
* marks the source's active call; other numbers are inactive results; i = inactive; . = no result given; & = joins results of further samples.

The opening 4 records, ahead of the listing:
mol	MbtI inh	PV pol inh	PV pol inh intensity	MenB inh
COc1ccc(C(CC(=O)c2ccco2)Sc2cccc3cccnc23)cc1OC (stereo not drawn)	44	101	101	-43
O=c1c2cc3c(=O)n(-c4ccccn4)c(=O)c3cc2c(=O)n1-c1ccccn1	-15	100	98	-11
O=C(CN1CCN(S(=O)(=O)c2ccc3c(c2)OCCCO3)CC1)N1CCCc2ccccc21	-9	102	121	-12
CN1N=C(c2ccccc2)NN(C)P1(=S)c1ccccc1 (stereo not drawn)	2	103	97	15

The list itself, previewed entries included:
mol	MbtI inh	PV pol inh	PV pol inh intensity	MenB inh
COc1ccc(C(CC(=O)c2ccco2)Sc2cccc3cccnc23)cc1OC (stereo not drawn)	44	101	101	-43
O=c1c2cc3c(=O)n(-c4ccccn4)c(=O)c3cc2c(=O)n1-c1ccccn1	-15	100	98	-11
O=C(CN1CCN(S(=O)(=O)c2ccc3c(c2)OCCCO3)CC1)N1CCCc2ccccc21	-9	102	121	-12
CN1N=C(c2ccccc2)NN(C)P1(=S)c1ccccc1 (stereo not drawn)	2	103	97	15
CC(C)NS(=O)(=O)NC(C)C	-2	100	103	14
C=CCn1cnc2c(c1=O)c1nc3ccccc3nc1n2CCC1=CCCCC1	-6	108	109	8
O=C1OCCC1Sc1ncc(C(F)(F)F)cc1Cl (stereo not drawn)	0	102	95	-6
NC1=C(c2nc3ccccc3s2)CC(c2ccccc2)O1 (stereo not drawn)	-9	119	158	-3
COC(=O)C1=NOC2C(=O)N(c3ccc(C)cc3)C(=O)C12 (stereo not drawn)	9	99	99	-8
COc1ccc(N(Cc2nc3ccccc3s2)S(=O)(=O)c2cccs2)cc1	-14	104	109	-4
O=C(NC1=NCCS1)C1CCN(S(=O)(=O)c2ccc3c(c2)OCCCO3)CC1	-5	102	101	-12
CC1(C)CC(=O)C(C=NC(Cc2ccccc2)C(=O)O)=C(O)C1 (stereo not drawn)	14	99	104	-18
O=C(C1CC(=O)N(C2CCCCCCC2)C1)N1CCC2(CC1)OCCO2 (stereo not drawn)	-20	100	102	-4
Cn1c(=O)n(C)c2cc(NC(=O)C3COc4ccccc4O3)ccc21 (stereo not drawn)	6	102	99	-2
CCOC(=O)C1CCCN(c2c3c(nc4cc(-c5ccc(C)cc5)nn24)CCC3)C1 (stereo not drawn)	-4	99	104	-11
COCc1nnc(NC(=O)C2CCN(C(=O)c3ccco3)CC2)s1	92*	93	94	-2
O=C(Cc1cccc(C(F)(F)F)c1)OCN1C(=O)c2ccccc2C1=O	0	99	105	0
CCOC(=O)C1CCN(C(C)C(=O)Nc2ccc(C(C)C)cc2)CC1 (stereo not drawn)	-8	104	101	-4
CN(Cc1nc(-c2ccccc2)no1)C(=O)Nc1ccccc1	-14	104	108	-27
COC(=O)CCC(=O)c1c(C)[nH]c2ccccc12	.	111	107	-8
O=C(OCc1c(Cl)nc2sccn12)c1cc2c(s1)CCCC2	-7	100	106	-55
CCOC(=O)N1CCN(C(=O)CCn2c(=S)[nH]c3cc(OCC)c(OCC)cc3c2=O)CC1	-5	101	100	7
O=C(OCc1nc2ccccc2s1)c1cccc(-n2cnnn2)c1	3	110	114	14
O=C(O)C1CCN(C(=O)CSc2ncc(C(F)(F)F)cc2Cl)CC1	-16	101	104	-12
O=C(Cc1cccc(C(F)(F)F)c1)Nc1ccccc1	0	101	101	-9
O=C(COn1nnc2ccc(Cl)cc21)NCc1ccco1	8	102	101	10
c1coc(-c2cc(-c3nc4ccccc4s3)c3ccccc3n2)c1	89	106	117	-16
Cc1ccc(NC(=O)Cn2cc(/C=C3/NC(=O)NC3=O)c3ccccc32)cc1	-17	102	107	-26
COc1ccc(CN2C(=O)CN(C)C2=S)cc1	-2	101	108	-17
CCN(CC)c1ccc(NC(=O)CN(C)Cc2cccs2)cc1	4	105	105	-9
O=C(O)c1cccc2cc[nH]c12	37	101	98	3
CC(C)(C)c1nnc2sc(COc3ccc(Br)cc3)nn12	12	99	102	-8
O=C(COC(=O)c1ccc2ccccc2n1)NC1CCCC1	25	96	125	0
c1nc(Nc2ccc3c(c2)OCO3)c2c3c(sc2n1)CCC3	-19	106	114	0
O=C(NCc1ccc2c(c1)OCO2)C1(S(=O)(=O)c2ccc(Cl)cc2)CC1	-2	101	101	-6
Nc1ccc(CCC(=O)NC2CC2)cc1	-7	107	101	-16
COc1cc2c(cc1OC)CN(C(C)C(=O)Nc1cccc(C#N)c1)CC2 (stereo not drawn)	-4	98	94	-1
CC(C)(C)c1cc(NC(=O)COC(=O)c2ccc(Br)o2)n(-c2ccccc2)n1	11	100	105	14
Cc1nccn1Cc1ccc(C(=O)O)cc1	-2	100	102	-12
Cc1cc(C)c(OCCn2ccnc2)c(C)c1	-7	101	107	7
Cc1nn2c(-c3ccc(NC(=O)c4ccccc4Cl)cc3)nnc2c2ccccc12	15	104	103	-8
Cc1cc(NC(=O)C(F)(F)C2(F)OC(F)(F)C(F)(F)C2(F)F)no1 (stereo not drawn)	3	97	101	-1
Cc1ccc(NC(=O)C2CC(=O)N=C(N)S2)cc1C (stereo not drawn)	3	102	97	.
O=C(Nc1cc2ccccc2s1)NC1Cc2ccccc2C1	-5	105	115	-17
COc1ccc(N2CCN(C(=O)CN3CCN(S(=O)(=O)c4ccc(C(C)(C)C)cc4)CC3)CC2)cc1	-8	104	96	-33
NC(=O)CSc1nc2c(c(=O)n1-c1ccccc1)C1=C(CCC1)C2	.	97	102	-9
Cc1ccccc1NC(=O)CSc1ncn[nH]1	-5	104	106	-6
COc1nc(-c2ccccc2)cc(-c2ccccc2)c1C#N	.	105	111	-36
Cc1ccc(OCNC(=O)N2CCOCC2)cc1	-11	103	104	-6
O=C(CSc1nc2nccnc2c(=O)n1Cc1ccccc1)Nc1ccccc1C(F)(F)F	-1	103	101	-11

The results go on.
mol	MbtI inh	PV pol inh	PV pol inh intensity	MenB inh
CC1CCCCN1c1ncccc1C(=O)NC1CCCC1 (stereo not drawn)	-4	103	102	-45
N#Cc1ccc(C(=O)OCc2ccccc2)cc1	-15	102	101	.
CCOc1ccc(Br)cc1C=Nc1ccc2c(c1)OCO2	-13	105	108	-40
CC(Oc1ccccc1C(C)C)C(=O)O (stereo not drawn)	-1	102	105	-14
CCOC(=O)C1C(=O)C=C(c2ccco2)CC1c1ccc(OC)cc1 (stereo not drawn)	12	97	103	1
CC(C)(C)NC(=S)Nc1cc(C(F)(F)F)cc(C(F)(F)F)c1	1	107	104	4
O=C(CCCc1c[nH]c2ccccc12)Nc1ccccc1N1CCOCC1	1	109	109	-28
Cc1nc(SCC(=O)Nc2c(C)nn(C)c2C)c2cnn(-c3ccccc3)c2n1	12	100	102	22
COc1cccc(NC(=O)NC(C)(C)C)c1	-15	101	102	-5
Cc1oc(-c2cccc(Cl)c2)nc1CN1CCC(C(=O)NCCCN2CCCC2)CC1	6	101	103	-5
CCCN(C(=O)[C@H]1[C@@H]2C[C@@H]3[C@H]1C(=O)O[C@@H]3C2)c1ccccc1F	-18	103	101	5
N#C/C(=C/c1ccc(-c2ccc(S(N)(=O)=O)cc2)o1)C(=O)Nc1cc(Cl)ccc1Cl	-19	51	173	-26
Cc1nc2ccccc2nc1CSc1nncs1	8	99	105	0
CC1CC(C)(C)NC(=S)N1CC(=O)N1CCN(c2ccc(F)cc2)CC1 (stereo not drawn)	-1	100	100	-5
O=c1[nH]cnc2c1sc(=S)n2-c1ccccc1	-5&21	106	109	8
CC(C)(C)NC(=O)[C@@H]1C[C@@H]2CCCC[C@@H]2CN1	-1	100	103	20
O=C(c1ccco1)N1CCN(C(=O)C2CCCO2)CC1 (stereo not drawn)	-10	98	104	6
Cc1ccc(NC(=O)CNc2ccccc2)cc1	.	107	108	-14
COc1ccc2oc(=Nc3ccc(C(=O)O)cc3)c(C(=O)NCc3ccccc3)cc2c1	21	103	104	-45
O=C(/C=N/O)NCCN1CCCCC1	-17	103	100	-6
CN(c1cccc(NS(C)(=O)=O)c1)S(C)(=O)=O	-3	100	99	-29
CC(C)c1ccc(Nc2nn3c(=O)c4ccccc4nc3s2)cc1	80	100	97	-15
Cc1nc(S/C(=C/c2ccc(-c3ccc(Cl)cc3)o2)C(=O)O)n[nH]1	-6	102	111	-37
N#Cc1ccc(C2C3=C(CCCC3=O)NC3=C2C(=O)CCC3)cc1	63	102	101	-94
CCN1CCN(c2ccc(NC(=O)c3cccc(Cl)c3Cl)cc2)CC1	-8	100	100	7
O=C(NCCCN=C1NS(=O)(=O)c2ccccc21)c1ccncc1	-7	102	101	17
CCN(Cc1ccccc1)C(=O)Cn1c(=O)n(-c2cccc(OC)c2)c(=O)c2sccc21	-9	98	99	-7
CC1CCN(C(=O)CC(C(=O)N2CCc3ccccc32)n2ccnc2)CC1 (stereo not drawn)	-3	100	103	-5
COc1ccc(CCC(=O)N(C)C)cc1	-18	106	101	-20
COc1cc(OC)c(C2=NOC(C(=O)Nc3cc(C)n(CC(=O)NCc4ccco4)n3)C2)cc1Cl (stereo not drawn)	-18	104	103	-28
COc1ccc(Nc2nc(C(=O)N3CCN(C)CC3)cs2)cc1	.	109	105	-19
CC1=CC(=NC(=O)c2ccco2)C(C)=CC1=O	100*	102	102	-16
CSc1nnc(-c2ccccc2)o1	-4	104	104	-21
CCOC(=O)C1CCN(c2cc(C(F)(F)F)nc3ccc(Br)cc23)CC1	-2	105	102	-8
CC1CCN(CCC(=O)Nc2ccc3c(c2)OCO3)CC1	.	102	108	-7
Cc1nnc(NC(=O)c2ccc3c(c2)C(=O)N(C2CCCCC2)C3=O)s1	-6	102	101	17
COc1ccc2c(C)cc3nnc(SCC(=O)N(C)Cc4ccco4)n3c2c1	81	.	.	-13
O=c1n(-c2ccccc2)c(=O)n2n1CC(O)C2	-5	101	105	25
N/C(=N\OC(=O)C12CC3CC(CC(C3)C1)C2)c1cccnc1	5	99	99	4
COC(=O)CCC(=O)Nc1ccccc1C(N)=O	8	102	103	-2
COc1c[nH]n(-c2ccccc2)c(=O)c1=O	16	99	102	13
CCCn1c(-c2ccccc2Cl)nc2ccccc21	1	102	96	-26
C=CCn1c(SCC2=C(C(=O)OCC)C(C)NC(=O)N2)nnc1-c1ccoc1C (stereo not drawn)	-9	108	111	-25
Cc1occc1C(=O)C(C#N)=C(NCc1cccnc1)NCc1cccnc1	1	103	102	-12
O=C(c1ncc[nH]1)c1ccccc1C(=O)N1CCCC1	8	101	96	.
Cc1ccc2nc(-c3cccc(NC(=O)C4CCCO4)c3)oc2c1 (stereo not drawn)	i	105	102	-24
Cc1c(Br)c(C(F)(F)F)nn1CC(N)=O	.	101	111	-8
Cc1cc(=O)n2nc(N)sc2n1	14	101	104	-25
CCc1ccc(/C=C2\SC(=O)N(CC(=O)N3CCOCC3)C2=O)cc1	0	104	102	-22
CCc1nn(Cc2ccccc2)c(=O)c2cc3cc(C)ccc3n12	9	101	101	4

(further entries)
mol	MbtI inh	PV pol inh	PV pol inh intensity	MenB inh
Cc1cc2occ(CC(N)=O)c2cc1Cl	-20	100	103	-28
Cc1ccc(-n2nc(C(=O)N3CCCC(C)C3)c3c4ccccc4n(C)c3c2=O)cc1 (stereo not drawn)	4	102	98	-37
COc1ccc2c(c1)c1c3n2CCN(C2CCCCC2)C3=NCC1	-26	101	98	-19
CN1C(=O)/C(=C(/C#N)C(=O)N2CCCC2)c2ccccc21	-6	103	92	-18
CCc1ccccc1NC(=O)CCS(=O)(=O)c1ccc2c(c1)CCCN2C(C)=O	-8	104	103	-18
CCOc1cc2[nH]c(=O)n(CCc3ccc(OC)c(OC)c3)c(=O)c2cc1OCC	-11	100	102	-31
CCSC1=NSC2=NC(=O)/C(=C\c3ccc(OC(=O)c4ccco4)c(Cl)c3)C(=N)N12	-145	105	106	-31
O=c1c(-c2ccccc2)coc2c(CN3CCCCCC3)c(O)ccc12	63	106	100	-29
Cc1cccc(N2C(=O)CN(Cc3cccs3)C2=S)c1	-18	100	103	-11
CCC(C)NC(=O)CSc1nc2ccc(Br)cc2c2nc3ccccc3n12 (stereo not drawn)	-14	101	103	8
COc1ccc(OC)c(C2=NOC(C(=O)NC(C)(C)C)C2)c1 (stereo not drawn)	15	102	102	-16
Cc1nn(-c2ccccc2Cl)c2[nH]c(=O)cc(C(F)(F)F)c12	134	102	105	3
CCOc1ccccc1NC(=O)C1SC(=Nc2ccccc2OC)C(C(N)=O)=C1N (stereo not drawn)	10	103	107	4
CCN(CC)c1ccc(C=NCCc2ccccc2)c(O)c1	-6	103	108	-78
CC(C)C(=O)Nc1cccc(S(=O)(=O)c2cccc(NC(=O)C(C)C)c2)c1	-21	102	101	-28
O=C(O)C1(c2ccc3c(c2)OCCO3)CCCC1	-1	100	104	12
ON=C1CCCCC1	-7	97	98	-18
Cc1cccc(OCC(=O)Nc2ccccc2N2CCCCC2)c1	2	99	104	-7

An unsorted share of the library; about 1.8% have a hit in one of these screens.
